Screens deposited in PubChem BioAssay by National Center for Advancing Translational Sciences (NCATS).
hNpr1 antagonist: human Npr1 receptor antagonism. P16066. HEK293 hNpr1 GloSensor cGMP, ANP-stimulated luminescence. Potency, µM (series often up to 46.3 µM), without a hit: at the highest dose activity change, negative = inhibition, usual class: inhibitors. hit rate 1.6% among 76,000. AID 1347048; active = well fitted inhibition curve with a large enough effect; inconclusive = small, poorly fitted or top-dose-only effect; inactive = no such curve, though single readings can be large or run the other way;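 note: nearly all actives have a fitted effect of over 60% in size; nearly all hits also lower the signal before the agonist is added; a reference antagonist and vehicle were the controls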
Target sequence (P16066 whole entry, looked up): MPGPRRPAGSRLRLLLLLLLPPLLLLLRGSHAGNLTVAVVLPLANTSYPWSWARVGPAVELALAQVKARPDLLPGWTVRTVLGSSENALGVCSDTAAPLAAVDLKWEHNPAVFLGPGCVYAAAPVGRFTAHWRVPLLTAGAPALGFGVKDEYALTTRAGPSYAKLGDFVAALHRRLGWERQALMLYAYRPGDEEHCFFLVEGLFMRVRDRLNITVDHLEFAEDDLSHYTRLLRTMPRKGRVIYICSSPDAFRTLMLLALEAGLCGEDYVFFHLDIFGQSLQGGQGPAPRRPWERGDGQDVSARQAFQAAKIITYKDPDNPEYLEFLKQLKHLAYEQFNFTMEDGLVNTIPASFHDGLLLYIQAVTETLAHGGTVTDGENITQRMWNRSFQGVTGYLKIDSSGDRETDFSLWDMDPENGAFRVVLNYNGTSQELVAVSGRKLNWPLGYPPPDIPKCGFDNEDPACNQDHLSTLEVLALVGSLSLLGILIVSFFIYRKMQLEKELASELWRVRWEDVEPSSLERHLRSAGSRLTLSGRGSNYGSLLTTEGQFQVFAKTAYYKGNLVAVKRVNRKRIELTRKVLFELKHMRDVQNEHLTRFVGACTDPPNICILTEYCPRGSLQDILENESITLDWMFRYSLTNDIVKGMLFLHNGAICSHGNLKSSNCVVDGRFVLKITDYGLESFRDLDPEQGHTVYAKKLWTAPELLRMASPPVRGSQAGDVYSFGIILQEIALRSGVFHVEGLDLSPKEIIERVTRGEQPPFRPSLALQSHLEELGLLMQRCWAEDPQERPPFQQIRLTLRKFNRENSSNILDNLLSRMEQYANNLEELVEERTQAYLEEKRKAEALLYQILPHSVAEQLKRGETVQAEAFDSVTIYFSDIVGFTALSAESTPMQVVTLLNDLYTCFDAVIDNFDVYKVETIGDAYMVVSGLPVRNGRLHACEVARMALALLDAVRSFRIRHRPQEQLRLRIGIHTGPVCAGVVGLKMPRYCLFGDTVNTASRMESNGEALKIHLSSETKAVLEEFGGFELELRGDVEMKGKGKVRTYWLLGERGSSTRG
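HEK293 cells stably expressing human Npr1 and cGMP GloSensor pGS-40F, loaded 2 h with 2% GloSensor reagent, given compound 30 min at room temperature. Luminescence read before and 20 min after 0.1 nM hNppA.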
An asterisk follows results filed as active; ? = inconclusive; [ ] = another dose, or the depositor's remark. % is set by controls: 0 for no effect and ±100 for the full control effect; potency is the fitted concentration of half-maximal effect.

Structure	hNpr1 antagonist
O=C(NCCc1ccccc1)C1CCc2ncc(-c3ccsc3)n2C1 (configuration not stated)	?
CNC(=O)CCn1ncc2cc(OC3CCc4cccc(-c5ccnc(OC)c5)c43)ccc21 (configuration not stated)	1.6%
COc1ccc(-c2noc(C(=O)O)c2[C@@H](C)NC(=O)c2ccccc2)cc1	-3.3%[70.6 µM]
CC(C)c1ccc(C(=O)N2CCC[C@H]2c2nc(-c3ccccc3)no2)cc1	5.3%
Cc1nc2c(c(-c3ccc(O)cc3)n1)CN(Cc1cccc3ccccc13)CC2	-16.4%
COc1cc(CCC(=O)NC2CCc3nn(CC4CC4)c(=O)n3CC2)on1 (configuration not stated)	-7.3%
CN(C)C[C@@H]1CN(c2ncccn2)C[C@H]1NC(=O)c1cc(Cl)ccc1F	4.0%
O=C1NCC2(CCN([S+](=O)([O-])c3cccc(C(F)(F)F)c3)CC2)Oc2ccccc21	2.0%
O=C(c1ccsc1)N1CCCn2cc(-c3ccc4c(c3)OCO4)nc21	4.8%
CN1CCC(N[C@H]2[C@H](O)[C@H](O)C[C@@H]2c2ccc(N3CCOCC3)nc2)CC1	-1.3%[70.6 µM]
CC(C)OCCCNC(=O)C1N(C(C)C)C(=O)C12CCCC2 (configuration not stated)	-8.8%
Cc1ccc(NC(=O)N2CCC(CCNC(=O)C(C)C)CC2)cc1	2.6%
O=C(NC1CCCCC1)NC1CCc2nnc(C3CC3)n2CC1 (configuration not stated)	-0.5%
CC(C)N1C[C@H](O)C[C@H]1c1nnc2n1CCN(C(=O)C1CCC1)CC2	-13.1%
CN1CCN(Cc2ccc(Nc3cnc4ccc(N5CCOCC5)nn34)cc2)CC1	-1.1%[70.6 µM]
O=C(c1cn2cc(-c3ccccc3Cl)n(CC3CC3)c(=O)c2n1)N1CCCCC1	-0.3%
c1ccc([C@@H]2CN(Cc3ccncc3)C[C@H]2COc2cccnc2)nc1	2.1%
COc1ccc(C2=NOC3(CCN(Cc4cccc5ccccc45)C3)C2)cc1 (configuration not stated)	?
Cc1cc(=O)n(CC(=O)N2CCN(c3ccc(F)cc3)CC2)c(N2CCc3ccccc3C2)n1	-1.5%
CN1C(=O)CCC2(CNC(=O)C3CCOCC3)CCC=C12 (configuration not stated)	11.8%
CCC1=C(C(=O)OC)C(c2cccc(OC)c2OC)N2C(CC(=O)NC3CC3)=CSC2=N1 (configuration not stated)	-18.5%
CN(C)CCNC(=O)c1n[nH]c2c1CN(C(=O)c1cc(F)ccc1Cl)CC2	-3.4%
Cc1cccc(-c2ocnc2C(=O)N2CCCOCCNC(=O)CC2)c1	3.1%
Cc1noc(C)c1C(=O)N1CCCCCCn2c(nnc2-c2ccc(F)cc2)CC1	-2.6%
CC(C)C(=O)N1CCC(c2nc(C3CCOCC3)no2)C1 (configuration not stated)	-1.6%
CC(C)CCN1C(=O)CC[C@]2(C(=O)NC3CC3)CCCC[C@@H]12	0.6%
Fc1ccc2cnc(N3CCC(N[C@H]4C[C@@H]5OCC[C@H]45)CC3)nc2c1	-0.1%
O=C1CCCCCN1C1CCN(Cc2ccccc2C(F)(F)F)CC1	-7.2%[70.6 µM]
COc1ccc(NC(=O)C(C)(C)Oc2nn(CC3CC3)c3ccc(CN4CCCC4)cc23)cc1	-1.8%
O=c1cc(N2CCOCC2)oc2c(N3CCOCC3)nccc12	6.3%[70.6 µM]

A draw from above in order of heavy-atom count, smallest number first.
Structure	hNpr1 antagonist
CC(C)CCN1C(=O)CC[C@]2(C(=O)NC3CC3)CCCC[C@@H]12	0.6%
O=C(NCCc1ccccc1)C1CCc2ncc(-c3ccsc3)n2C1 (configuration not stated)	?
COc1ccc(C2=NOC3(CCN(Cc4cccc5ccccc45)C3)C2)cc1 (configuration not stated)	?
COc1ccc(NC(=O)C(C)(C)Oc2nn(CC3CC3)c3ccc(CN4CCCC4)cc23)cc1	-1.8%

Of the compounds above, these contain a thiophene ring, fused or not:
Structure	hNpr1 antagonist
O=C(NCCc1ccccc1)C1CCc2ncc(-c3ccsc3)n2C1 (configuration not stated)	?
O=C(c1ccsc1)N1CCCn2cc(-c3ccc4c(c3)OCO4)nc21	4.8%

New compounds follow
Structure	hNpr1 antagonist
CC(C)(C)NC(=O)N1CCC2(CC1)C(=O)N(CC(=O)NCCc1ccccc1)CN2c1ccccc1	-16.3%
Cc1cccc(N2CCN(C(=O)c3ccc4c(c3)N(C)C3CCCCN3C4=O)CC2)c1C (configuration not stated)	-16.1%
CN(CCNC(=O)C1CCN(C(=O)N2CC3CC(C2)[C@H]2CCCC(=O)N2C3)CC1)C1CCCCC1 (some centres not stated)	-10.0%
COc1cccc(CCC(=O)N2[C@@H]3CC[C@H]2CC(NC(=O)c2ccncc2)C3)c1 (some centres not stated)	8.6%
CC(C)(C)C(=O)N1CCc2nc(-c3ccc(Cl)cc3)nc(-c3ccccc3)c2C1	6.1%
CC(C)c1ccc(NC(=O)C2(C)CCCCC(=O)N2)cc1 (configuration not stated)	5.8%
CC(C)(C)c1ccc(C(=O)N2C[C@@H](CO)[C@H](c3ccccn3)C2)cc1	-0.8%
CNC(=O)CCn1ncc2cc(OC3CCc4cccc(-c5c(C)noc5C)c43)ccc21 (configuration not stated)	-14.3%[70.6 µM]
Cc1ccc(CN2CCCN(Cc3ccncc3)C(c3ccccc3)CC(=O)NCC2)o1 (configuration not stated)	-4.6%
Cn1cc(CN2CCN(c3cnccn3)CC2)c(-c2ccc(C3CCCCC3)cc2)n1	5.5%
CS(=O)(=O)N1CCCC1c1noc(CCC(=O)NCc2ccncc2)n1 (configuration not stated)	2.0%
O=C1CCN(S(=O)(=O)c2ccccc2)CCCN(C(=O)c2ccsc2)CCN1	1.5%
CC(C)CC(=O)N1CCCCCC1c1nc(-c2ccncc2)no1 (configuration not stated)	-15.9%
COCCOC1CCOC2(CCN(C(=O)c3nccc4ccccc34)CC2)C1 (configuration not stated)	18.3%
CC(=O)N1CCN(C(=O)C[C@@H]2CCNC[C@@H]2Cc2cc(-c3ccccc3)on2)CC1	-20.1%[70.6 µM]
CCCCc1cc(C[C@H]2CNCC[C@H]2CC(=O)NCc2ccccc2)no1	?
Cc1nc(C)c(C(=O)N2CCC(c3nnc(Cn4ccnc4)n3C)CC2)o1	5.8%
O=C(CC1CCCN(c2cnn(CC3CC3)c(=O)c2)C1)N1CCOCC1 (configuration not stated)	2.5%
Cc1ccc(-c2cc3c(=O)n(CCNC(=O)c4ccoc4)ccn3n2)c(C)c1	-5.4%
COCCN1C(=O)Cc2ccccc2C1C(=O)NCc1ccc(N2CCCCC2)cc1 (configuration not stated)	1.0%
Cn1ccnc1CN1C(=O)CO[C@H](c2ccc(NC(=O)CC(C)(C)C)cc2)[C@H]1CO	4.6%[70.6 µM]
Cc1ccc(C)c(C(=O)N2CCC(n3cnnc3C3CC3)CC2)c1	1.2%
COc1cc2c(cc1CNC(=O)Cn1nc(C)n(Cc3ccccc3)c1=O)CCC2	2.5%
O=C(NCC1CCCCO1)C1(Oc2ccc(Cl)cc2)CCNCC1 (configuration not stated)	1.9%
Cc1cccc(C(=O)N2CCC(c3n[nH]c(=O)n3Cc3ccc(F)cc3)CC2)c1	-0.6%
O=C1NCCOCCCN(C(=O)Nc2ccc3c(c2)OCCO3)[C@H]2CCCC[C@@H]12	-17.6%
CC(C)Nc1cc(N2CCN(Cc3ccccc3F)C(CCO)C2)ncn1 (configuration not stated)	-18.5%
CC(C)(C)CC(=O)N[C@H]1C[C@@H](Cc2cc(COc3ccccc3)on2)C1(C)C	14.1µM*
CC(C)c1nc2c(c(-c3ccc(O)cc3)n1)CN(C(=O)c1ccccc1Cl)CC2	-1.4%
COc1ccc(CCN2Cc3cc(NC(=O)Cc4cccs4)ccc3OCC2=O)cc1	-1.5%
NC(=O)[C@@H]1CCCN1CC[C@H]1CN(C(=O)C2CCCC2)CC[C@H]1CC(=O)O	1.4%[70.6 µM]
N#Cc1ccc(C(=O)N2CC(C(=O)NCCc3ccncc3)C3(CCOCC3)C2)cc1 (configuration not stated)	-11.1%
O=C(Nc1ccc2ncnc(N3CCCCC3)c2c1)c1ccccc1Cl	-15.8%
CN(CC1CCOCC1)C(=O)CCc1ccccc1	-0.4%
O=C(NCc1ccco1)C1COC2(CCN(C(=O)c3cccs3)CC2)N1C(=O)c1ccccc1 (configuration not stated)	1.2%
O=C(c1nnc(COc2ccc(F)cc2F)n1-c1ccccc1)N1CCC[C@@H]1c1cccc(F)c1	4.4%
COCC(=O)N[C@@H]1CN(Cc2cnn(C)c2C)C[C@H]1CO	-12.2%
COc1ccc(-c2nc(C)nc3c2CN(Cc2ccc(NC(C)=O)cc2)CC3)cc1	-2.3%
O=C(O)C[C@@H]1CCN(C(=O)c2cccs2)C[C@@H]1CCN1CCN(c2cccc(C(F)(F)F)c2)CC1	5.3%
CC(=O)Nc1ccc(CN2C(=O)OC3(CCN(C(=O)C(C)C)CC3)C2(C)c2ccccc2)cc1 (configuration not stated)	1.7%
Cc1noc2c(NCc3cccnc3)cc(-c3ccc(Cl)cc3)nc12	6.5%[70.6 µM]
Cn1cnc(C(=O)N2CCC(Cc3ccc(C(=O)N4CCOCC4)cc3)CC2)c1	2.9%
COc1ccc(C(=O)N2CCC(n3cc(-c4nc(C(C)C)no4)nn3)C2)cc1OC (configuration not stated)	0.0%
COc1cccc(C(C)N(C)Cc2nc(Cc3cccc(F)c3)no2)c1 (configuration not stated)	-16.0%
O=C1c2cnc(-c3cccc(CO)c3)nc2OCCN1c1ccccc1	?
COc1ncc(-c2nc(-c3c(C)noc3C)cc3c2cc(C)n3CCN(C)C)cn1	-3.1%[70.6 µM]
COc1ccc(C(=O)N2CCC3(CC2)OC(=O)N(Cc2ccc(NC(C)=O)cc2)C3(C)c2ccccc2)cn1 (configuration not stated)	2.2%
O=C(O)CCc1cc2n(n1)CCN(C(=O)Cc1ccncc1)C2	-1.4%
CC(C)N1C(=O)C2(CCCC2)C1C(=O)N1CCC(N2CCCCC2)CC1 (configuration not stated)	-4.3%
CN1CC2(CCCN(C(=O)CCc3ccccc3Cl)CC2)OC1=O (configuration not stated)	1.1%
O=C(c1cccnc1)N1C[C@@H]2OCC(=O)N(CC3CC3)[C@@H]2C1	6.1%[70.6 µM]
O=c1[nH]c(C2CCN(CC3CCCCC3)CC2)nn1Cc1ccccc1	7.5%
COc1ccc(C(=O)N[C@H]2[C@H](O)[C@H](O)C[C@@H]2c2ccc(N3CCOCC3)nc2)cc1OC	0.1%
Cc1ccc(C)c(CN2C(=O)NC3(CCCN(C(=O)c4ccc(C)c(F)c4)C3)C2=O)c1 (configuration not stated)	-0.1%
COC(=O)[C@@H]1Cc2ncn(C)c2CN1C(=O)c1ccc(F)cc1	7.0%[70.6 µM]
Cc1ccn(CCC(=O)N[C@@H]2COCC[C@@H]2Oc2cccc(F)c2)n1	-5.4%
COc1ccc2[nH]c3c(c2c1)CCNC31CCN(C(=O)Cc2cccnc2)CC1	6.1%
O=C(Cn1nc2c(cc1=O)CCCC2)NCc1cccc(Cl)c1	1.8%
O=C(Cn1cccc1-c1nc(-c2ccccc2)no1)NCc1ccccc1Cl	6.4%
O=S(=O)(c1ccc(F)cc1)N1CCCC(Cn2c(C3CC3)nc3cccnc32)C1 (configuration not stated)	-1.1%

Next part
mol	hNpr1 antagonist
CN(C)CCNC(=O)C1CC(=O)N(c2n[nH]c3ccccc23)C1 (configuration not stated)	1.4%
N#Cc1cccc(C(=O)N2CCN(C(=O)c3nnn4c3COC(c3ccccc3)C4)CC2)c1 (configuration not stated)	-3.6%
CN(Cc1ccc(F)cc1)c1ccc2ncc(Nc3ccc(CCO)cc3)n2n1	-11.0%[70.6 µM]
O[C@H]1[C@H](NCc2ccncc2)[C@H]2CO[C@H](O2)[C@@H]1N1CCC(Cc2ccccc2)CC1	3.5%[70.6 µM]
COc1ccccc1CC(=O)NCc1nnc2cc(-c3nc(C4CC4)no3)ccn12	-5.8%
COC(=O)[C@@H](C)NC(=O)[C@H]1CN(S(=O)(=O)c2ccccc2)CCN1C(C)=O	-0.8%[70.6 µM]
O=C([C@H]1O[C@H](CCN2CCN(Cc3ccccc3)CC2)CC[C@@H]1O)N1CCN(c2ccc(F)cc2)CC1	-22.0%
O=[S+]([O-])(c1cccs1)N1CCn2c(nnc2C2CC2)C1	4.5%[70.6 µM]
COc1cccc(NC(=O)O[C@@H]2CC[C@]3(C)C(CC[C@@H](O)[C@H]3CC(=O)NCc3ccccc3OC)[C@]2(C)CO)c1 (some centres not stated)	5.5%
Cc1nc(N2CCN(C(=O)c3ccc(Cl)cc3)CC2)cc(C(F)(F)F)n1	7.3%
CN(CC1CCCCC1)C1CCOc2ccccc21 (configuration not stated)	15.8%[70.6 µM]
Cc1ccc(C(=O)N2CCCCCC2c2nnc(-c3ccccc3)o2)cn1 (configuration not stated)	6.4%
Cc1ccc2oc([C@H]3CCN(Cc4ccc(C(F)(F)F)cc4)C3)nc2c1	-25.8%[70.6 µM]
COc1ccccc1CNC(=O)C1CCN(c2cc(C(F)(F)F)ncn2)CC1	-10.4%
COc1cccc(OCc2nc3c(n2Cc2ccccc2)C(=O)N(CCOc2ccccc2)CCN3)c1	?
Cn1nccc1C(=O)N1CCC(Oc2ccccc2-c2nc(-c3ccccc3)no2)C1 (configuration not stated)	-2.8%
CC(=O)N1CC2(CCN(Cc3cscn3)CC2)CC1C(=O)O (configuration not stated)	3.4%
COc1ccc(C(=O)N2CC[C@H]3CC(=O)N(c4ccccc4)CC[C@H]3C2)cc1	3.3%[70.6 µM]
COc1ccc(N2CCC(N3CCC4(CC(=O)NC4=O)C3)CC2)cc1 (configuration not stated)	-9.9%

A portion of the library; rates above refer to the full screens.
